Source: PubChem
T cruzi inh: T. cruzi replication inhibition. T. cruzi beta-gal in NIH3T3, luminescence, 90 h. inhibition, % (no concentration beside the values). actives 1.4% (n = 300,000). AID 1885;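 active = mean inhibition across valid replicates above about 55%, limit read from the data; inconclusive = mean below that limit but half or more replicates reach it; inactive = mean below it, under half of replicates reach it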;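 also: signal also drops with host cell toxicity which is not excluded here; 0% = plate median of DMSO wells and 100% = zero luminescence signal; higher percent means less beta-gal luminescence so fewer parasites; stock transfer was 50 nL into about 50 µL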
AF4-AF9 inh: blocks AF4 peptide binding to human AF9. AID 651704. AlphaScreen, biotin-AF4 peptide binding to FLAG-AF9. actives 0.47% (n = 350,000). P42568. inhibition, % at 10 µM;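 active = every replicate reaching a set inhibition limit, whatever the replicate mean, cut at about 25% in these data; inconclusive = mean inhibition reaches that limit but some replicates miss it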;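 also: 0% = plate neutral control median and 100% = total signal loss; the record names both 10 and 1 µM as test concentration; the first replicate is given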
Target sequence (P42568 whole entry, looked up): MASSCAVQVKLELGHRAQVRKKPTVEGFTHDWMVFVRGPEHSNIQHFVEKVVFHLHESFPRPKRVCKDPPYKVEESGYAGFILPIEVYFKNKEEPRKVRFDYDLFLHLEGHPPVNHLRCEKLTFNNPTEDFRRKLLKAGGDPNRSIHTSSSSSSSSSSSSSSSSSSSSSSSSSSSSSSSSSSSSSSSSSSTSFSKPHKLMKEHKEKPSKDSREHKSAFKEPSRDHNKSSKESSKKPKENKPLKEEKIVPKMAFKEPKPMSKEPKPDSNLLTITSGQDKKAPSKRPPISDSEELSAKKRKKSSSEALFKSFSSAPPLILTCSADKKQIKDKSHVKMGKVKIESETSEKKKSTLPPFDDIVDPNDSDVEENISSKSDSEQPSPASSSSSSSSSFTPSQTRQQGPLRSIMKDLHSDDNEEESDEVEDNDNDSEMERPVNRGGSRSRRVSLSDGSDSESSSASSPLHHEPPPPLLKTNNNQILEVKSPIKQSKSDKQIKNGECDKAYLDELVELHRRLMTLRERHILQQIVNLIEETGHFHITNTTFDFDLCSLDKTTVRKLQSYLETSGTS
RanGTP-Impb inh: disruptors of Ran-importin-beta complex formation – biochemical, FRET, CFP-Ran, YFP-importin-beta, homogeneous, primary screen; cell-free CFP-Ran/YFP-importin-beta FRET ratio; inhibition, % (concentration not given with the values); AID 2216; actives 1.1% (n = 300,000);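 active = most replicates above 15%; inconclusive = exactly half above 15%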;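 also: 0% = DMSO wells and 100% = Ran loaded with GDP instead of GTP; wells of about 40 µL received 100 nL stock; the first replicate is given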
LANA-H2A inh: blocks KSHV LANA binding to histone H2A/H2B; cell-free LANA-H2A/H2B peptide, fluorescence polarization; inhibition, % (no concentration beside the values); actives 0.6% (n = 320,000); AID 2629; in the data active = inhibition mostly above about 10%, no sharp cut-off; inactive = mostly below about 6.7%;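 also: stock transfer was 7.5 nL into about 10 µL; 0% = median of vehicle wells and 100% = median of positive control wells; one replicate is shown; the record names a cut of 25% in any replicate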
Beta apoptosis: blocks beta cell apoptosis; INS-1E cytokine-induced death, ATP luminescence, 48 h; percent of positive-control rescue, neutral wells zero; actives 0.8% (n = 300,000); protection from apoptosis, % (no concentration beside the values);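 active = all replicates at 75% or more, or half of them and the mean; inconclusive = half reach 75% but not the mean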;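 also: 0% = cytokine-treated negative control wells and 100% = positive control rescue; higher means more ATP so stronger rescue from cytokine killing; wells of about 40 µL received 100 nL stock; the first replicate is given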
Calb FLC: C. albicans growth modulation with fluconazole. C. albicans CaCi-2 (fluconazole-resistant clinical isolate) + fluconazole, Alamar Blue growth, 48 h. growth inhibition, % (test concentration not listed). actives 0.57% (n = 300,000);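 active = most replicates above 75%; inconclusive = exactly half above 75%; inactive = most below 75%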;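 also: all wells also contain fluconazole at 8 µg/ml as a sub-toxic cotreatment; 0% = median of DMSO wells and 100% = median of geldanamycin control wells; wells of about 8 µL received 7.5 nL stock; the first replicate is given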
Bfl-1 A1 inh: inhibitors of the anti-apoptotic protein A1, read as caspase activation; MEF A1-2A-BIM cells, Caspase-Glo 3/7 luminescence, 3 h; percent of clofoctol response, vehicle zero; caspase activation, % (concentration not given with the values); actives 0.066% (n = 330,000); AID 2462;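 active = over half of replicate activation scores above 10%, or exactly half above 10 with the replicate mean above 10; inconclusive = replicate mean below 10 yet half the replicates above 10; inactive = over half of replicates below 10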;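 also: wells of about 30 µL received 50 nL stock; many hits fall short of the cut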
Vif TR-FRET: inhibitors of Vif binding to APOBEC3G peptide, primary screen, biochemical, TR-FRET, GST-Vif 1-94, biotin-A3G peptide, dose response retest (AID 1117319); TR-FRET GST-Vif / biotin-A3G peptide binding; higher % means a stronger effect; test concentration not given here; strong numbers were not always called active; inhibition, %; hits with a dose series show IC50 in µM; actives 0.57% (n = 260,000);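 active = above the screen mean plus three standard deviations and confirmed in dose response; inconclusive = results disagree or hit not tested in dose response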;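 also: Vif residues 1-94 fused to GST binding biotinylated APOBEC3G peptide 110-148; 0% = full assay without inhibitor and 100% = GST in place of GST-Vif; retest series ran down from 100 µM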
* = called active by the depositor; i = inactive; ? = inconclusive; . = no result given; & = joins results of further samples. Not a hit list; overall some 4.3% were active at least once.

| SMILES | T cruzi inh | AF4-AF9 inh | RanGTP-Impb inh | LANA-H2A inh | Beta apoptosis | Calb FLC | Bfl-1 A1 inh | Vif TR-FRET |
| --- | --- | --- | --- | --- | --- | --- | --- | --- |
| COc1ccc[nH]c1=O | -4 | -8.6 | 3.1 | 2.2 | 0 | 33 | 0.2 | -3% |
| Cc1cccc(-n2ccnc2SCC(=O)O)c1C | -17 | -3.1 | -2.7 | -1.2 | -4 | -5 | 0.1 | -1% |
| O=C(COc1ccccc1)OCc1cc(-c2ccco2)on1 | . | -1.4 | . | i | 1 | . | 0.5 | -4% |
| CC(C)c1ccc(S(=O)(=O)N2CCN(CCC(=O)Nc3ccc(N(C)C)cc3)CC2)cc1 | 16 | . | -1.8 | . | . | -18 | . | 2% |
| CCc1ccc(NC(=O)CNCc2ccc(OC)c(OC)c2)cc1 | 3 | 1.6 | -0.5 | 3.8 | -6 | -1 | -0.4 | 4% |
| O=C(c1ccc(Br)cc1)N1CCCC1 | -5 | . | -0.7 | 2.5 | -10 | -3 | -1.2 | 3% |
| COC(=O)CC(NC(=O)c1ccc(C)cc1)c1ccc2c(c1)OCO2 (stereo not drawn) | -4 | . | 0.3 | -5.2 | -1 | -1 | 0.4 | 4% |
| CCOC(=O)C(Cc1c[nH]c2ccccc12)NC(=O)CNC(C)=O (stereo not drawn) | -4 | . | ? | -1.0 | -1 | -5 | 0.3 | 19% |
| CC(C)CC(=O)Nc1ccc(Cc2ccncc2)cc1 | -23 | -1.1 | 4.7 | -1.6 | 4 | 2 | -1.0 | . |
| CCOC(=O)CC1C(C(=O)OCC)ON2OC(C(=O)OC)C(C(=O)OCC)C12 (stereo not drawn) | -10 | . | -4.6 | -3.3 | -7 | 0 | 0.4 | 0% |
| COC(=O)[C@H](Cc1ccccc1)NC(=O)N(C)Cc1ccccc1 | 7 | . | -1.9 | -3.4 | -6 | ? | 0.1 | -6% |
| CCCCCC(=O)Nc1cc(S(=O)(=O)N2CCOCC2)ccc1N1CCCC1 | 9 | 0.1 | -0.6 | -3.0 | -7 | -6 | 0.2 | . |
| Cc1nn(C)c(C(=O)Sc2ccccc2)c1[N+](=O)[O-] | 6 | 3.3 | -1.8 | -2.4 | -23 | 2 | -0.5 | 8% |
| N#Cc1ccc(CN2CCN(C(=O)c3cc(C4CC4)nn3-c3ccccc3)CC2)cc1 | . | 2.2 | . | 3.7 | 5 | . | 0.5 | 4% |
| O=C(Nc1ccc(S(=O)(=O)N2CCCC2)cc1)C1CC(=O)N(c2ccccc2)C1 (stereo not drawn) | 11 | -0.5 | 3.5 | 1.5 | -2 | -2 | 0.9 | -3% |
| COc1cc(NC(=O)CN2CCN(c3ccccc3O)CC2)c(C)cc1[N+](=O)[O-] | 0 | . | -1.5 | 2.9 | . | -2 | 1.1 | 10% |
| Cc1c(/C=N/NC(=O)c2sc3ccccc3c2Cl)cnn1C | -3 | . | -3.8 | -0.9 | -5 | -18 | 0.4 | -3% |
| COC(=O)C(C)(N)Cc1ccc(O)cc1 (stereo not drawn) | . | -2.6 | . | -0.1 | -5 | . | -0.8 | . |
| CCOC(=O)c1[nH]nc(-c2cc(CC)c(O)cc2O)c1-c1cscn1 | -1 | -31 | -1.8 | -2.2 | 5 | -4 | 0.0 | 3% |
| COc1ccc(OCCNC(=O)Nc2cc(F)c(F)cc2Cl)cc1 | -3 | -0.8 | -1.2 | 11 | 3 | 28 | -1.2 | -7% |
| Fc1ccc(NC(=S)NCc2cccs2)cc1 | -5 | . | 4.7 | . | -3 | -10 | 0.9 | -1% |
| COc1ccc2[nH]c(=O)c(-c3nnn(-c4ccccc4)n3)cc2c1 | 10 | -2.8 | 1.8 | -2.8 | 2 | -3 | 3.2 | 4% |
| COCc1cc(C)nc2sc(C(=O)OC)c(N)c12 | -5 | . | 2.2 | 0.3 | -3 | 7 | -0.5 | -8% |
| CCCCNC(=O)c1cc2cc(CC)ccc2[nH]1 | -1 | -2.8 | 3.6 | -5.6 | . | -1 | 0.0 | -5% |
| CCOC(=O)N1C(=O)c2cc(OC)ccc2S1(=O)=O | -17 | . | 2.1 | 1.4 | -3 | 0 | -0.5 | 17% |

The list continues:
| SMILES | T cruzi inh | AF4-AF9 inh | RanGTP-Impb inh | LANA-H2A inh | Beta apoptosis | Calb FLC | Bfl-1 A1 inh | Vif TR-FRET |
| --- | --- | --- | --- | --- | --- | --- | --- | --- |
| Cc1cccc(NC(=O)c2cnccn2)c1 | 1 | -1.3 | 3.8 | 2.9 | -4 | 3 | -3.7 | . |
| O=C(C1CCCN(S(=O)(=O)c2cccc3nsnc23)C1)N1CCN(c2ccccn2)CC1 (stereo not drawn) | -4 | . | -3.6 | -1.4 | -6 | -2 | 3.0 | 3% |
| C=CCN1C(=O)C2(NC(=O)c3ccccc3N2)c2ccccc21 (stereo not drawn) | -6 | -1.5 | -2.5 | 3.6 | -5 | -3 | -0.4 | -1% |
| CCc1ccc(C2CC(c3ccccc3)Nc3nc(N)nn32)cc1 (stereo not drawn) | 24 | 2.6 | 2.7 | -0.3 | -1 | 2 | 1.0 | -6% |
| CN1CCN(/N=C/c2nc(-c3ccccc3)n3ccccc23)CC1 | -3 | . | 6.6 | 4.9 | 0 | 3 | 0.4 | . |
| COc1ccc(Cl)cc1C(=O)Nc1nc2ccccc2[nH]1 | 22 | 0.3 | 5.7 | 1.8 | 11 | -6 | -8.7 | . |
| Nc1ncnc2nc(N3CCN(C(=O)c4ccccc4)CC3)[nH]c12 | -3 | . | 0.4 | -1.0 | -1 | -7 | -0.3 | 28% |
| COc1ccc(/C=C(\C#N)C(=O)C(C)(C)n2cncn2)cc1 | -8 | -0.6 | -2.5 | 2.0 | 3 | -16 | -1.2 | -7% |
| C(=N\Nc1nc(N2CCOCC2)nc(N2CCOCC2)n1)/c1cccnc1 | -16 | . | 3.5 | -1.8 | -2 | -4 | 0.5 | 21% |
| O=C(Nc1ccccc1Cc1ccccc1)c1ccccc1F | -4 | -6.6 | -1.4 | 3.9 | -4 | -4 | 0.2 | . |
| NNc1nc2c(Cl)cccc2s1 | 19 | 4.9 | 2.3 | 2.2 | -1 | 9 | -0.4 | 0% |
| O=c1[nH]c(C2CCN(S(=O)(=O)Cc3ccccc3)CC2)nc2c1nnn2Cc1ccccc1 | 7 | -0.1 | 4.9 | -6.7 | -1 | 5 | -0.7 | . |
| COc1ccc(NC(=O)c2cccc(N3C(=O)C4C5C=CC(C6CC56)C4C3=O)c2)cc1 (stereo not drawn) | -7 | -6.0 | -0.6 | -5.4 | 0 | 6 | -1.2 | . |
| O=C(c1cccc(OC2CCN(Cc3cc(F)cc(F)c3)CC2)c1)N1CCCC1 | 17 | 3.6 | -0.5 | 5.4 | -2 | -17 | 0.6 | . |
| O=c1[nH]c2ccccc2n1CCCSCCCn1c(=O)[nH]c2ccccc21 | -6 | . | -1.3 | -4.7 | 5 | 47 | 0.4 | 28% |
| Cc1cc(F)ccc1S(=O)(=O)Nc1ccccc1C(=O)Nc1ccccc1N1CCOCC1 | 10 | . | 1.7 | -3.9 | 12 | 6 | 0.8 | 1% |
| CC(=O)c1ccc(NC(=O)Nc2sc(NS(=O)(=O)c3ccccc3)nc2C)cc1 | -11 | -1.3 | 2.5 | 0.8 | . | -6 | 0.3 | . |
| Cc1nc2nc(C)c(CCC(=O)NC3CCCCC3)c(C)n2n1 | -4 | 1.3 | -2.2 | -0.5 | 1 | 35 | -0.3 | -3% |
| Cc1cc(C)n(CCO)c(=O)n1 | 1 | . | 1.5 | -0.9 | -4 | 2 | 0.3 | 0% |
| CCc1nc(N)nc(N)c1-c1ccc(Cl)cc1 | 21 | -3.9&3.4 | ? | -1.5 | . | -6 | . | 19% |
| COc1ccc(C(=O)CSc2nnc(-c3cc(C)on3)o2)cc1 | -1 | -0.3 | -1.7 | -2.5 | 0 | -3 | 0.2 | -75% |
| O=C(CCC(=O)N1CCOc2ccccc21)Nc1cc(F)ccc1F | 3 | -4.7 | 0.2 | -4.1 | -3 | -9 | 0.4 | . |
| O=C(Cn1[nH]c(=O)c2ccccc2c1=O)NNC(=O)c1ccccc1 | -8 | 3.3 | -2.2 | -3.6 | 2 | -4 | 0.2 | 8% |
| CNC(=O)c1[nH]nc2c1CCc1ccccc1-2 | 6 | -3.4 | 0.3 | 6.2 | -1 | -14 | 1.2 | . |
| CCN(CC)C(=O)c1cn(CCC#N)nc1-c1ccc2ccccc2c1 | -5 | -3.1 | 0.4 | -5.5 | -3 | 24 | 0.1 | . |

Profiles, quoted from the list. Order of screens: T cruzi inh | AF4-AF9 inh | RanGTP-Impb inh | LANA-H2A inh | Beta apoptosis | Calb FLC | Bfl-1 A1 inh | Vif TR-FRET
`Cc1cc(F)ccc1S(=O)(=O)Nc1ccccc1C(=O)Nc1ccccc1N1CCOCC1` in the list: 10 | . | 1.7 | -3.9 | 12 | 6 | 0.8 | 1%
`Cc1nc2nc(C)c(CCC(=O)NC3CCCCC3)c(C)n2n1` in the list: -4 | 1.3 | -2.2 | -0.5 | 1 | 35 | -0.3 | -3%

Remaining list, next part
| SMILES | T cruzi inh | AF4-AF9 inh | RanGTP-Impb inh | LANA-H2A inh | Beta apoptosis | Calb FLC | Bfl-1 A1 inh | Vif TR-FRET |
| --- | --- | --- | --- | --- | --- | --- | --- | --- |
| Cn1cc([C@@H]2C[C@H]3CN(C4CCCC4)C(=O)[C@]34CCCN24)c(-c2ccccc2)n1 | -1 | 3.5 | 1.7 | -4.0 | -7 | -10 | -0.1 | 13% |
| COc1cccc2c(=O)n(CC(=O)N3CCC(C)CC3)ccc12 | 8 | -2.4 | 0.1 | 2.7 | -7 | -1 | 0.6 | -5% |
| CN1C(=S)SC2CS(=O)(=O)CC21C (stereo not drawn) | -15 | 0.9 | 2.0 | -2.0 | -11 | -8 | -0.1 | -8% |
| Cc1cc(NS(=O)(=O)c2ccc(NC(=O)CCCOc3ccccc3)cc2)no1 | -5 | . | 3.6 | 2.7 | 5 | -5 | 0.0 | 20% |
| Cc1ccc(CN2CCN(c3ccccc3Cl)CC2)o1 | -3 | 4.7 | 1.8 | 3.5 | -9 | 1 | 0.2 | . |
| CCOc1cc(/C=C2\SC(=O)N=C2N)ccc1O | -8 | -0.2 | -4.8 | 1.9 | 4 | 3 | 0.6 | 30% |
| COc1ccc(C(=O)Nc2nc3ccc4nc(C)sc4c3s2)cc1 | -1 | 0.9 | 2.7 | 0.1 | 1 | 0 | 0.5 | -31% |
| CCOC(=O)c1ccc(NC(=O)N2CCN(S(C)(=O)=O)CC2)cc1 | 2 | . | -4.2 | 2.5 | -5 | 6 | 0.1 | 13% |
| O=C(CN1C(=O)c2ccccc2C1=O)Nc1ccc(S(=O)(=O)NCC2CCCO2)cc1 (stereo not drawn) | -37 | 1.4 | -1.9 | -2.9 | . | 4 | 1.3 | -2%&2% |
| C=CCNC(=O)CC(=O)N/N=C/c1ccc(F)cc1 | -11 | . | -0.3 | 4.8 | . | -1 | 0.4 | 25% |
| CC(NS(=O)(=O)c1ccc(F)cc1)C(=O)NCc1ccncc1 (stereo not drawn) | -10 | . | 1.7 | 5.9 | -13 | 1 | 0.7 | -7% |
| Clc1ccc(-c2noc(CCCOc3ccccc3)n2)cc1 | 6 | . | -2.9 | -0.2 | -6 | -1 | -0.9 | -2% |
